# Rce1 inhib = yeast Rce1p protease inhibitors, primary screen, biochemical, fluorescence, cell-free homogeneous. CAAX prenyl protease 2 (Saccharomyces cerevisiae (strain ATCC 204508 / S288c)), Q03530. yeast membranes, quenched prenylated peptide cleavage fluorescence. calls only. 0.27% of 290,000 active. AID 2563, 2010;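 active = fall in fluorescence gain of 50% or more versus controls, with final raw signal at or below 3038400; inconclusive = same 50% fall but final raw signal above 3038400; inactive = fall in fluorescence gain under 50%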;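 note: plate controls were neutral control wells for no effect and wells lacking membranes for full effect; tested at 10 µM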
# Target sequence (Q03530 whole entry, looked up): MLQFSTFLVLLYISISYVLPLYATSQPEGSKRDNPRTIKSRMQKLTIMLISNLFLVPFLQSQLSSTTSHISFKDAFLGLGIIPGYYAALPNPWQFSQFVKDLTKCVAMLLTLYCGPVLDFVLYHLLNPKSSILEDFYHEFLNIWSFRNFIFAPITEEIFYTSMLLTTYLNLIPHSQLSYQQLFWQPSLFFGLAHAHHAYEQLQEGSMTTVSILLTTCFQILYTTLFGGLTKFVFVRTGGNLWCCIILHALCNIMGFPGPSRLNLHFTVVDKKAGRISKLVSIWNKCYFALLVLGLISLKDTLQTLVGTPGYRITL
# HIV Env fusion = inhibitors of HIV-1 Env-driven cell-cell fusion, primary screen, HeLa-JRFL effector, CEM21 target cells, luciferase; inhibition, % at 12.3 µM; AID 651610, 2012; 1.1% of 360,000 active;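 active = mean replicate inhibition score of at least 50 and every replicate individually at or above 50; inconclusive = only one of the two criteria met; inactive = mean below 50 and not all replicates reaching 50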;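 note: 0% = plate neutral controls and 100% = maraviroc near 300 nM; one replicate is shown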
# MT1-MMP act inh = blockers of MT1-MMP proenzyme processing, primary screen, HT1080 RFP-PRO-GFP cells, GFP/RFP fluorescence | 0.061% of 360,000 active | GFP/RFP ratio fluorescence, overnight; percent of plate control window, DMSO zero | GFP/RFP ratio change, % at 20 µM;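 active = GFP/RFP ratio change of at least 30% with cell ATP level not reduced by more than half and red fluorescence within 50% of control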; note: strong numbers were not always called active
#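 system = RFP-PRO-GFP reporter HT1080 cells | dosing = 20 µM single dose, 1% DMSO | timing = overnight cell settling, then overnight compound exposure, 37 °C, 5% CO2 | read-out basis = GFP/RFP fluorescence ratio | controls = DMSO and RFP-L50D-GFP cell wells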
# CSC inhib = cancer stem cell viability inhibitors, primary screen, luminescence; inhibition, % at 7.5 µM; cancer stem cell-like cells viability; 1.1% of 300,000 active;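 active = mean at 75% or more and at least half the replicates too; inconclusive = mean and replicates disagree; tested in HMLE shEcad cells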;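 note: 0% = median of negative and 100% = median of positive control wells; the first replicate is given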
# Yeast UUG start = modulators of yeast start codon fidelity, primary screen, whole organism, S. cerevisiae, single point, plate reader; S. cerevisiae UUG-firefly luciferase reporter, luminescence/redox ratio; activity score, % at 18.7 µM; 0.13% of 350,000 active; AID 602363, 2012;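 active = replicate mean at a twofold rise or more, about +100% in these data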;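 note: firefly luciferase made from a UUG start codon reports start codon fidelity; reporter light over untreated wells divided by growth signal over untreated wells; some hits fall short of that in this replicate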
# eIF4H FP inh = human eIF4H binding inhibitors, primary screen, translation initiation inhibitor project, biochemical, uHTS, fluorescence polarization; Eukaryotic translation initiation factor 4H (Homo sapiens), Q15056; eIF4H fluorescence polarization binding assay; inhibition, % at 35 µM; 0.94% of 290,000 active;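 active = 50% or more with normal probe brightness, or confirmed in later tests; inconclusive = above 50% with abnormal brightness, or retests that disagree; inactive = below 50% or failed in later tests; about a fifth of its hits are not listed in these tables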;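 note: calls also rest on retests at 20 µM and on dose response follow-up; 0% = protein and probe with vehicle and 100% = probe without protein; strong numbers were not always called active; many hits fall short of the cut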
# PABP FP inh = PABP poly(A) RNA binding inhibitors, primary screen, biochemical, fluorescence polarization, uHTS; Polyadenylate-binding protein 1 (Homo sapiens), P11940; inhibition, % at 35 µM; 1% of 290,000 active;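 active = 50% or more with normal probe brightness, or confirmed in later tests; inconclusive = above 50% with abnormal brightness, or retests that disagree; inactive = below 50% or failed in later tests; about a fifth of its hits are not listed in these tables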;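 note: calls also rest on retests at 20 µM and on dose response follow-up; controls were probe without protein and protein plus probe with vehicle; some compounds called inactive have numbers as strong as hits; many hits fall short of the cut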
# Target sequence (P11940 whole entry, looked up): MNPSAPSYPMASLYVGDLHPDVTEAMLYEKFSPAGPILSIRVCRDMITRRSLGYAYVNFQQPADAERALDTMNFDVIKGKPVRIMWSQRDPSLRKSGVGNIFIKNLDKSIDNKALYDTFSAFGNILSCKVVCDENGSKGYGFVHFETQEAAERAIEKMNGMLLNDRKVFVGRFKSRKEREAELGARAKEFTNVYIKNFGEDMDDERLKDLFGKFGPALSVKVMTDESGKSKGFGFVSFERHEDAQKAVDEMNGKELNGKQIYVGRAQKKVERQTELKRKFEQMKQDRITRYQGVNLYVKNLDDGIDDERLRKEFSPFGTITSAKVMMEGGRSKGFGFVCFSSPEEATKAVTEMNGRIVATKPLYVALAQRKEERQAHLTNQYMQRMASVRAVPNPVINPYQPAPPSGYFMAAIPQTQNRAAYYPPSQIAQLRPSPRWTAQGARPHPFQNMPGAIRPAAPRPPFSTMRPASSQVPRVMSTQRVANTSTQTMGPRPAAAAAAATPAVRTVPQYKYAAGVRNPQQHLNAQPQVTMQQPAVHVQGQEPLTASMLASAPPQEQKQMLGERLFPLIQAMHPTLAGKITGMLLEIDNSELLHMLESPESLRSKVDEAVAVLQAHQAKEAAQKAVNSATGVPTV
# eIF4H FP inh retest = recorded beside eIF4H FP inh, whose call it bears; inhibition, %; compound at 20 µM; confirmation average;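 mean of two retest wells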
# PABP FP inh retest = recorded beside PABP FP inh, whose call it bears; inhibition, %; compound at 20 µM; confirmation repeats;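 mean of two retest wells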
# MT1-MMP act inh RFP = second read-out of MT1-MMP act inh, no call of its own (marks repeat the call); RFP signal change, %; measured here: RFP expression control read;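 0 = vehicle wells; hits needed this value within 50% of zero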
# * marks the source's active call; other numbers are inactive results; i = inactive; ? = inconclusive; . = no result given; & = joins results of further samples.
SMILES,Rce1 inhib,HIV Env fusion,MT1-MMP act inh,MT1-MMP act inh RFP,CSC inhib,Yeast UUG start,eIF4H FP inh,PABP FP inh,others
CCN(CC)CCCNCC(=O)Nc1ccc(OC)c(Cl)c1,i,.,.,.,2,.,14,24,
CCN(CC)S(=O)(=O)c1ccc(N2CCCCC2)c(NC(=O)/C=C/c2cc(OC)c(OC)c(OC)c2)c1,i,8,5,2,-2,.,-12,-8,
Cc1ccc(C(=O)c2ccccc2C(=O)OCC(=O)NCC2CCCO2)cc1 (stereo unspecified),i,12,-2,1,.,.,-1,-2,
O=C1C=C(c2cccc(O)c2)CCC1,i,12,1,0,-16,10,.,.,
CCCc1ccc(C2C3=C(CC(C)(C)CC3=O)NC3=C2C(=O)c2ccccc23)cc1 (stereo unspecified),i,.,-37,-37,89*,-9,16,7,
COC(=O)c1ccc2c(=O)n(Cc3ccc4c(c3)OCO4)c(=S)[nH]c2c1,i,-16,-3,-1,.,-15,-2,13,
COc1ccc(CC(NC(C)=O)C(=O)NC2CCN(c3nc(C)cc(C)c3C#N)CC2)cc1OC (stereo unspecified),i,-10,0,1,-8,.,1,-4,
CCOC(=O)Cn1c(=N)n(Cc2ccccc2F)c2ccccc21,.,.,2,0,-12,-2,-4,4,
CC1=CC(C)(C)Nc2ccc(OC(=O)c3cccnc3)cc21,i,-295,-163,-2,25,-12,6,46,
Cc1cccc(-n2c(O)c(C=NC3CCS(=O)(=O)C3)c3ccccc3c2=O)c1C (stereo unspecified),i,15,2,-1,-5,-12,1,11,
O=C(Cn1cnc2ccccc21)N/N=C/C(Br)=C/c1ccccc1,i,.,0,-9,19,.,-7,-10,
O=C(O)c1ccc(Cn2nnc3sc4c(c3c2=O)CCCC4)cc1,i,5,-4,-2,-8,.,50,6,
COc1ccc(/C=C/C(=O)Nc2cc(F)ccc2C)cc1S(=O)(=O)N1CCOCC1,i,17,6,0,8,.,-3,-12,
O=C(c1ccc2c(c1)N(Cc1ccccc1)C(=O)c1ccccc1S2)N1CCCC1,i,.,-5,-4,-1,14,-12,-12,
CC1=C(C)Cc2c(OC(=O)c3ccccc3)ccc(OC(=O)c3ccccc3)c2C1,i,.,.,.,3,.,-2,6,
O=C1CC(N2CCN(c3nc4ccccc4s3)CC2)C(=O)N1Cc1cccs1 (stereo unspecified),i,.,-2,-12,0,-5,0,-8,
CCc1ccc2c(c1)C1(NN=C(c3ccc(C)cc3)S1)C(=O)N2 (stereo unspecified),i,.,3,-14,9,-43,-5,-12,
CCOC(=O)c1ccccc1NC(=O)c1cccc2c1C(=O)N(C1CCN(C(=O)OCC)CC1)C2,i,-79,5,-2,-8,9,-2,2,
CC(=O)NCCC(=O)Nc1nc(-c2ccccc2Cl)cs1,i,-3,4,3,-10,.,2,19,
C[C@H]1CN([C@@H](C)CO)C(=O)c2cccc(NC(=O)c3ccc(-c4nccs4)cc3)c2O[C@@H]1CN(C)C(=O)NC1CCCCC1,.,-12,2,5,.,4&1,.,.,
CCC1CCCCN1CCCNC(=O)CCC(=O)N1CC(C)Oc2ccccc21 (stereo unspecified),i,29,-1,0,2,-24,-5,-3,
Cc1noc(C)c1COc1ccc(C(=O)NCC(c2c(F)cccc2Cl)N(C)C)cc1 (stereo unspecified),.,-93,4,3,.,-4,.,.,
O=S(=O)(Nn1cnnc1)c1ccc(F)cc1,i,-50,.,.,11,.,-1,7,
O=C(CSc1nnc(CNC(=O)c2ccccc2)o1)Nc1nccs1,i,3,-7,4,-2,-20,8,3,
COc1ccc(NC2CCCN(C(=O)c3csc(C)n3)C2)cc1 (stereo unspecified),i,-2,-3,3,4,-7,-10,12,
C=CCNC(=O)COC(=O)c1ccccc1C(=O)N(C)C1CCCCC1,.,-9,0,-1,-7,-6,11,14,
CSc1ncccc1C(=O)NCC(=O)Nc1ccc(F)c(F)c1,i,17,0,0,-2,-23,-9,4,
O=C(Nc1ccccc1Br)C1CCC(=O)N1Cc1ccccc1Cl (stereo unspecified),i,0,-3,-7,14,-12,-1,4,
COc1ccc(NC(C)=O)cc1C#N,i,-5,-1,-2,.,.,-14,-6,
NC(=NCCc1ccccc1)NS(=O)(=O)c1ccc(F)cc1,i,5,1,-3,6,-6,-5,6,
Cc1nn(-c2ccccc2)nc1C(=O)Nc1nnc(C(F)(F)F)s1,i,13,-2,-21,28,-24,8,2,
Cc1cc(N2CCOCC2)nc(SCC(=O)c2ccc(Cl)cc2)n1,i,.,-1,-1,-10,-9,5,7,
CN(NS(=O)(=O)c1ccccc1)c1nc2ccccc2nc1C(F)(F)F,i,.,5,6,10,-11,8,-7,
O=C1c2ccccc2C(=Nc2ccccc2)C1c1cccc(Br)c1 (stereo unspecified),i,-145,2,-1,19,.,-1,-1,
Clc1ccc(N2CCN(Cc3ccc(Br)o3)CC2)cc1,i,12,4,0,9,0,-5,16,
NC(=O)C1CCN(C(=O)CCNS(=O)(=O)c2cc(Br)cnc2N)CC1,i,9,0,6,0,-30,-8,1,
CC(C)C[C@@H](COc1ccccc1)N1CCN(Cc2ccccc2)CCC1=O,i,2,.,.,4,.,-2,-3,
O=C(NNc1ccc(-c2csnn2)cc1)c1cc(Cl)cc(Cl)c1,i,-4,3,-2,87*,-22,-7,-3,
O=C1/C(=C/c2ccncc2)Oc2cc(OS(=O)(=O)c3ccccc3)ccc21,i,2,3,-8,?,-9,6,-10,
CN(C)C1(CNC(=O)C2CCN(S(=O)(=O)c3c(Cl)cccc3Cl)CC2)CCCCC1,i,27,5,5,-8,.,.,.,
Cc1cc(C)n(CCC(=O)N=Nc2c(O)[nH]c3ccccc23)n1,i,-13,2,5,-9,-19,-2,-3,
CC(=O)c1cccc(NC(=O)c2oc(C)nc2C)c1,i,-13,-4,-2,-2,-12,-3,-2,
CCc1ccccc1NC(=O)CSc1nnc([C@@H]2CCCN2C(=O)OC(C)(C)C)o1,i,.,-1,1,-11,-12,-13,-14,
CCC(C)n1cnc2c(c1=O)c1nc3ccccc3nc1n2Cc1ccc2c(c1)OCO2 (stereo unspecified),i,.,.,.,.,.,-13,-7,
Cc1ccc(C)c(S(=O)(=O)N2CCCOC2CNC(=O)C(=O)NC2CC2)c1 (stereo unspecified),i,1,-3,-1,-5,-16,-4,3,
COc1ccc2c(c1)[C@H]1[C@H](CO2)[C@H](c2ccccc2)[C@]2(C)C(=O)Nc3ccc(F)cc3C(=O)N12,.,29,-5,-10,.,14,.,.,
CCNC(=O)NC(=O)COc1ccccc1C#N,i,.,4,4,4,-19,3,1,
COc1ccc2c(c1)N(S(=O)(=O)c1ccccc1)CCC2=O,i,-6,-3,1,-9,-20,3,3,

# Looked up by structure from the entries so far:
SMILES,Rce1 inhib,HIV Env fusion,MT1-MMP act inh,MT1-MMP act inh RFP,CSC inhib,Yeast UUG start,eIF4H FP inh,PABP FP inh,others
CCNC(=O)NC(=O)COc1ccccc1C#N,i,.,4,4,4,-19,3,1,
O=C(NNc1ccc(-c2csnn2)cc1)c1cc(Cl)cc(Cl)c1,i,-4,3,-2,87*,-22,-7,-3,

# (more compounds)
SMILES,Rce1 inhib,HIV Env fusion,MT1-MMP act inh,MT1-MMP act inh RFP,CSC inhib,Yeast UUG start,eIF4H FP inh,PABP FP inh,others
COc1cc(OC)c(OC)cc1CN1CCN(Cc2ccc(SC)cc2)CC1,i,-5,4,4,1,.,-1,-4,
Cc1ccc(S(=O)(=O)NCCc2nnc3ccc(SCC(=O)Nc4nc5ccccc5s4)nn23)cc1,i,.,.,.,-6,.,4,-18,
Cc1nc(Nc2ccccc2)c2oc3ccc(Cl)cc3c2n1,i,-103,2,-6,-1,-12,-5,-17,
O=C(CSc1nc2ccccc2c(=O)[nH]1)N1CCCCCC1,.,-76,-3,1,.,-14,-18,2,
CN(C)CCCNC(=O)c1cc(Br)ccc1Cl,i,-38,1,1,7,-19,2,5,
Cc1ccc(S(=O)(=O)N2CCOCC2)cc1C(=O)NC1CCCCCC1,i,26,1,1,3,15,-2,-10,
CC(=O)N1c2ccccc2NC2=C(C(=O)CC(C)(C)C2)C1c1cccn1C (stereo unspecified),i,-6,-1,-1,-11,-3,-3,-6,
CCCCNC(=S)N1CCN(C(c2ccccc2)c2ccccc2)CC1,i,-11,-9,-10,-1,.,-12,-8,
NC(=O)C1CCCN(Cc2c(C(=O)N3CCc4ccccc4C3)nc3ccc(Cl)cn23)C1 (stereo unspecified),i,-9,-4,4,2,4,-6,4,
Cc1csc(=N)n1-c1ccc(Cl)cc1,i,.,-6,-3,-3,-20,6,2,
CC(C)(C)c1ccc(C(=O)NNc2cc(N3CCOCC3)nc(N3CCOCC3)n2)cc1,i,-1,0,2,-4,.,78,64,eIF4H FP inh retest=5;PABP FP inh retest=22
COc1ccc(CNC(=O)COC(=O)Cc2ccc(Cl)cc2Cl)cc1,i,9,3,3,-5,.,-2,10,
Cc1cc(NC(=O)c2cc(-c3cccs3)on2)no1,i,.,-5,3,15,.,-4,2,
Oc1ccccc1N1CCN(CC(O)COCc2ccccc2Cl)CC1 (stereo unspecified),i,-7,2,3,-5,.,-1,-8,
CCC1Oc2ccccc2N(CC(=O)N2CCOCC2)C1=O (stereo unspecified),i,-21,1,1,-12,-5,5,2,
CCCC1Cc2c(sc(NC(=S)NC(=O)c3ccccc3)c2C#N)CO1 (stereo unspecified),i,.,.,.,-1,.,-1,-5,
COC(=O)c1cc(NC(=O)CSc2nc(C)cc(=O)[nH]2)cc(C(=O)OC)c1,i,.,2,-6,-6,-22,11,16,
CCOC(=O)C1CCN(C(=O)C(=O)N2CCC(C(=O)OCC)CC2)CC1,i,.,4,1,-8,-22,-2,9,
O=C(c1cn(-c2ccccc2)nc1-c1ccccc1)n1nnc2ccccc21,i,20,3,5,17,17,-3,-9,
COc1ccccc1N(C)S(=O)(=O)c1ccc(C(=O)OCC(N)=O)cc1,i,-7,0,1,3,.,5,-1,
COc1ccc(C(=O)NCC(=O)OCC(=O)Nc2c(C)n(C)n(-c3ccccc3)c2=O)cc1,i,-16,-3,0,-8,-11,-6,-6,
Cc1ccc2c(CC(=O)NNC(=O)c3ccccc3O)coc2c1,i,5,7,7,9,-11,.,.,
NC(=O)CCS(=O)(=O)c1ccccc1,i,.,1,2,8,-18,-5,-6,
Cc1ccc(C(=O)Nc2nc(=O)[nH]s2)cc1,i,-10&-3,-2&3,1&4,6&13,.,6&-3,-11&0,
COc1cccc(CNC(=O)c2ccc(N3CCOCC3)c([N+](=O)[O-])c2)c1,i,6,4,1,-23,-3,0,4,
CCOC(=O)C1CCN(Cc2cnc(Oc3ccc(C(C)(C)C)cc3)s2)CC1,i,-13,2,0,-5,127*,4,-6,
O=C(Cn1cc([N+](=O)[O-])cn1)NCCc1nc2ccccc2[nH]1,i,11,1,5,-15,.,-4,7,
CC(=O)C1=C(O)C(=O)N(Cc2ccco2)C1c1ccc2c(c1)OCO2 (stereo unspecified),i,-101,6,1,-13,-21,11,10,

# High-throughput results: PubChem, several laboratories
